Screening results (PubChem)
PABP polyA inh = PABP-poly(A) binding inhibition; P11940; PABP-poly(A) RNA binding, fluorescence polarization; inhibition, % at 35 µM; actives 1% (n = 290,000);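 active = 50% or more with normal probe brightness, or confirmed in later tests; inconclusive = above 50% with abnormal brightness, or retests that disagree; inactive = below 50% or failed in later tests; about a fifth of its hits are not listed in these tables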;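 also: calls also rest on retests at 20 µM and on dose response follow-up; controls were probe without protein and protein plus probe with vehicle; some compounds called inactive have numbers as strong as hits; many hits fall short of the cut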
eIF4H inh = inhibitors of RNA binding by human eIF4H; eIF4H fluorescence polarization binding assay; inhibition, % at 35 µM; actives 0.94% (n = 290,000);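 active = 50% or more with normal probe brightness, or confirmed in later tests; inconclusive = above 50% with abnormal brightness, or retests that disagree; inactive = below 50% or failed in later tests; about a fifth of its hits are not listed in these tables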;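 also: calls also rest on retests at 20 µM and on dose response follow-up; 0% = protein and probe with vehicle and 100% = probe without protein; strong numbers were not always called active; many hits fall short of the cut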
CSC inhib = blocks cancer stem cells. cancer stem cell-like cells viability, luminescence. AID 2717. actives 1.1% (n = 300,000). inhibition, % at 7.5 µM;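 active = mean at 75% or more and at least half the replicates too; inconclusive = mean and replicates disagree; tested in HMLE shEcad cells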;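 also: 0% = median of negative and 100% = median of positive control wells; the first replicate is given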
MT1-MMP act inh = blocks activation of human MT1-MMP; GFP/RFP ratio change, % at 20 µM; AID 651647; actives 0.061% (n = 360,000); P50281; HT1080 RFP-PRO-GFP cells, GFP/RFP ratio fluorescence, overnight; percent of plate control window, DMSO zero;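 active = GFP/RFP ratio change of at least 30% with cell ATP level not reduced by more than half and red fluorescence within 50% of control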; also: strong numbers were not always called active
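system = RFP-PRO-GFP reporter HT1080 cells | dosing = 20 µM single dose, 1% DMSO | timing = overnight cell settling, then overnight compound exposure, 37 °C, 5% CO2 | read-out basis = GFP/RFP fluorescence ratio | controls = DMSO and RFP-L50D-GFP cell wells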
HIV Env fusion = HIV envelope-mediated fusion inhibition | HeLa-JRFL Env/CEM21 cell fusion, luciferase | inhibition, % at 12.3 µM | actives 1.1% (n = 360,000) | AID 651610;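 active = mean replicate inhibition score of at least 50 and every replicate individually at or above 50; inconclusive = only one of the two criteria met; inactive = mean below 50 and not all replicates reaching 50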;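 also: 0% = plate neutral controls and 100% = maraviroc near 300 nM; one replicate is shown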
Rce1 inhib = blocks yeast Ras-converting enzyme; Q03530; yeast membranes, quenched prenylated peptide cleavage fluorescence; calls only; actives 0.27% (n = 290,000); AID 2563;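 active = fall in fluorescence gain of 50% or more versus controls, with final raw signal at or below 3038400; inconclusive = same 50% fall but final raw signal above 3038400; inactive = fall in fluorescence gain under 50%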;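 also: plate controls were neutral control wells for no effect and wells lacking membranes for full effect; tested at 10 µM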
Target sequence (Q03530 whole entry, looked up): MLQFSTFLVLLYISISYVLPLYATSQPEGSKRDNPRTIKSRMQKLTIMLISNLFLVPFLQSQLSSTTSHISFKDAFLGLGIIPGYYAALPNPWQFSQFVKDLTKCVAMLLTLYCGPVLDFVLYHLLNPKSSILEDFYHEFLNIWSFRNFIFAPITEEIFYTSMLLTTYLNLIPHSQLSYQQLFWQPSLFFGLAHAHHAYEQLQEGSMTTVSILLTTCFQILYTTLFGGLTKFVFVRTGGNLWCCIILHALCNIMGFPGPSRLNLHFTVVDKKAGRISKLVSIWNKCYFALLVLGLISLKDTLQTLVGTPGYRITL
Yeast UUG start = yeast start codon fidelity modulation. S. cerevisiae UUG-firefly luciferase reporter, luminescence/redox ratio. actives 0.13% (n = 350,000). AID 602363. activity score, % at 18.7 µM;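 active = replicate mean at a twofold rise or more, about +100% in these data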;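 also: firefly luciferase made from a UUG start codon reports start codon fidelity; reporter light over untreated wells divided by growth signal over untreated wells; some hits fall short of that in this replicate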
eIF4H inh retest = recorded beside eIF4H inh, whose call it bears; inhibition, %; compound at 20 µM; confirmation average;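 mean of two retest wells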
PABP polyA inh retest = further read-out of PABP polyA inh, marked with its call; inhibition, %; compound at 20 µM; confirmation repeats;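 mean of two retest wells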
MT1-MMP act inh RFP = second read-out of MT1-MMP act inh, no call of its own (marks repeat the call); RFP signal change, %; measured here: RFP expression control read;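 0 = vehicle wells; hits needed this value within 50% of zero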
An asterisk follows results filed as active; i = inactive; ? = inconclusive; . = no result given. Some of the compounds tested. The share of hits here may be higher or lower than overall.

SMILES	PABP polyA inh	eIF4H inh	CSC inhib	MT1-MMP act inh	MT1-MMP act inh RFP	HIV Env fusion	Rce1 inhib	Yeast UUG start	others
Cc1c(Cl)cccc1NC(=O)CS(=O)(=O)c1ccccc1	-6	2	-1	-4	2	2	i	1
CNCCCOc1ccc(C)cc1Br	1	1	-16	-3	-6	-5	i	3
COc1ccc(CC(=O)NNC(=O)c2cc(C)oc2C)cc1OC	.	.	8	-2	1	6	i	-9
COc1ccc(-c2noc(N3CCC(C(=O)Nc4cc(OC)c(OC)c(OC)c4)CC3)n2)cc1	12	-18	-19	5	-3	-3	i	-15
Cc1cc(NC(=O)C(C)SCC(=O)Nc2cc(C(F)(F)F)ccc2N2CCCCC2)no1 (stereo unspecified)	.	.	12	-8	-6	74*	i	-19
COc1ccc(N2CCN(C(=O)c3cc(C4CC4)nn3-c3ccccc3)CC2)cc1	.	.	.	2	0	-11	.	14
CCN(CC)C(=O)c1ccc2c3c(cccc13)C(=O)N(CCc1ccc(OC)c(OC)c1)C2=O	-1	-4	-5	-1	-10	.	i	.
Cc1ccc(C)c(NC(=O)CN(C)C(=O)c2cccc(Oc3ccccc3)c2)c1	.	.	-7	7	-4	.	.	-4
CSc1ccc(C2NC(=O)c3c(sc4c3CCN(C)C4)N2)cc1 (stereo unspecified)	121*	109*	8	-39	8	12	i	-16	eIF4H inh retest=65*;PABP polyA inh retest=85*
COCCCNC(=O)C1CC(=O)N(CCc2ccc(F)cc2)C1 (stereo unspecified)	-4	1	-8	0	3	-14	i	-6
O=C(Cn1nc(-c2ccc(Cl)cc2)ccc1=O)N1CCN(c2ccccc2)CC1	-8	12	.	0	-3	-11	i	-7
C/C(=N\NC(=O)c1ccccc1)C1C2C=CC(C2)C1(C)C (stereo unspecified)	-6	-12	6	-10	-5	9	.	-19
CC(=O)N(C)N(C)c1cc(C)nc(N)n1	2	7	-5	3	4	4	i	.
CCN1CCN(C2=NC(=O)/C(=C/c3ccc(C)o3)S2)CC1	?	?	.	-8	2	-34	i	1
Cc1ccc(S(=O)(=O)N(C)CC(=O)Nc2cccc3c2CCCC3)cc1	4	-12	4	-2	-3	.	i	-3
Cn1nc(C(F)(F)F)c2cc(C(=O)O)sc21	-3	4	-4	0	5	9	.	.
COc1ccc(C(CC(=O)N2CCOCC2)c2c(O)cc(OC)cc2OC)cc1 (stereo unspecified)	-10	-9	-1	2	0	8	i	-10
CSc1nc(S(=O)(=O)c2ccccc2)c(Cl)s1	-12	4	.	-4	2	12	i	.
CCOC(=O)C1=C(N)Oc2ccc3ccccc3c2C1c1cccc(O)c1 (stereo unspecified)	0	-5	59	-1	-8	12	i	3
CCCOc1ccccc1OCC(=O)Nc1cc(Cl)ccc1-n1cncn1	.	.	-1	-1	-4	11	i	-16
Cc1cc(=O)[nH]c(SCCOc2ccc3c(c2)CCC3)n1	-12	-3	-13	-1	1	.	i	-13
COc1cccc(OC)c1/C=C/C(=O)NC1CCCCC1	-1	9	-13	2	1	-36	i	-17
Cc1cccc(CS(=O)(=O)Cc2ccc(C(=O)NC3CCCCC3)o2)c1	.	.	-9	-3	-3	21	i	6
Oc1ccccc1C=NCCN=Cc1ccccc1O	7	9	-3	-4	2	2	i	.
Cc1ccccc1C(=O)OCC(=O)Nc1cccc(S(=O)(=O)N2CCCCC2)c1	.	.	.	4	-9	?	.	-12

The closing 3 records of the section before come first, to join the parts.
SMILES	PABP polyA inh	eIF4H inh	CSC inhib	MT1-MMP act inh	MT1-MMP act inh RFP	HIV Env fusion	Rce1 inhib	Yeast UUG start	others
Cc1cccc(CS(=O)(=O)Cc2ccc(C(=O)NC3CCCCC3)o2)c1	.	.	-9	-3	-3	21	i	6
Oc1ccccc1C=NCCN=Cc1ccccc1O	7	9	-3	-4	2	2	i	.
Cc1ccccc1C(=O)OCC(=O)Nc1cccc(S(=O)(=O)N2CCCCC2)c1	.	.	.	4	-9	?	.	-12
COc1cc(C(=O)N/N=C/c2sccc2C)cc(OC)c1OC	8	-6	.	16	-1	-139	i	.
Cc1cccn2c(=O)c(C=O)c(Nc3ccc(S(N)(=O)=O)cc3)nc12	-3	-2	-3	-7	-4	.	i	-21
Cc1ccc(CSc2nnc(SCC(=O)N/N=C/c3ccc(C(=O)O)cc3)s2)cc1	0	-1	1	5	-3	20	i	-18
CCN(CC)CCCNC(=O)c1cn(-c2cccc(OC)c2)c(=O)c2ccccc12	-4	5	-11	-8	0	17	i	-15
COc1ccccc1N1CCN(Cc2cnc3ccc(Cl)cn23)CC1	-4	-8	.	-5	-14	8	i	-2
CCOC(=O)N1CCN(C(=O)CSc2nc3c([nH]c4ccccc43)c(=O)n2C)CC1	71	-5	6	1	-2	-41	i	-9	eIF4H inh retest=0;PABP polyA inh retest=12
CCC(C)Nc1nnnc2c1sc1nc3c(cc12)COC(C)(C)C3 (stereo unspecified)	-2	85*	0	6	0	5	i	8	eIF4H inh retest=74*;PABP polyA inh retest=34
CCCCn1c(N)c(N(CC(C)C)C(=O)c2cccs2)c(=O)[nH]c1=O	.	.	-11	-2	2	-6	i	-12
CC(=O)Nc1ccc(C(=O)N/N=C/c2ccccc2OC(=O)c2ccc(Cl)cc2)cc1	-10	9	3	4	0	.	i	-12
CC1CCN(c2oc(-c3ccco3)nc2S(=O)(=O)c2ccccc2)CC1	7	-1	-3	-6	-5	6	i	-31
Cc1ccc(-c2noc(CN(C(=O)c3ccc4c(c3)OCO4)C(C)C)n2)cc1	-6	2	5	-1	-1	1	i	-4
COc1ccc(OC(C)C(=O)N(C)Cc2nc(-c3ccccc3)no2)cc1 (stereo unspecified)	-7	1	2	1	-2	30	i	-5
O=C(COC(=O)c1ccc(F)cc1)Nc1ccc2c(c1)OCO2	.	.	-15	-1	4	3	.	-13
O=[N+]([O-])C(C1CCS(=O)(=O)C1)C1CCS(=O)(=O)C1 (stereo unspecified)	-19	3	-9	6	4	12	i	.
COc1ccc(S(=O)(=O)N(C)c2ccc(C(N)=O)cc2)cc1	-5	-9	-4	10	1	-73	i	-3
N#Cc1c(-c2ccc(F)cc2)cc(-c2cccnc2)nc1N	0	5	-8	-8	-5	-1	i	-4
Cc1cc(C(F)(F)F)n(-c2nc(C(=O)N/N=C/c3ccc(F)cc3)cs2)n1	-5	9	53	6	-3	-41	i	3
C=CCn1c(SCN2C(=O)c3ccccc3C2=O)nc2ccc(Cl)cc2c1=O	-1	7	3	-8	-5	.	i	-4
Cc1ccc(-c2nc(NCCN3CCOCC3)c3ccccc3n2)cc1	-2	1	-42	3	3	-19	i	-19
O=C(NCCCN1CCCC1=O)c1cccc(S(=O)(=O)Nc2ccc(Br)cc2)c1	.	.	-11	4	-1	-8	i	0
O=C(O)CN1C(=O)/C(=C/c2cccc(Cl)c2)Oc2ccccc21	2	-13	3	-5	-2	8	i	-5
CC1CCCC(NC(=O)CSC2=Nc3ccccc3C3CC=NN23)C1C (stereo unspecified)	.	.	4	-5	-5	.	.	-4
Cc1sc(NC(=O)CN2CCOCC2)c(C#N)c1C	-5	-1	8	2	0	8	i	-10
CC(C)C(=O)Nc1c(O)c2ccccc2[nH]c1=O	7	-3	0	0	2	7	i	1
O=C(NC(=S)Nc1ccc(CN2CCOCC2)cc1)c1ccco1	3	-2	-17	2	-1	-18	i	-24
SMILES	PABP polyA inh	eIF4H inh	CSC inhib	MT1-MMP act inh	MT1-MMP act inh RFP	HIV Env fusion	Rce1 inhib	Yeast UUG start	others
CC(C(=O)N1CCc2ccccc21)n1cccc1 (stereo unspecified)	7	3	-6	-2	-4	11	.	-7
Nc1nc(SCC(=O)N2CCCC2)[nH]c(=O)c1NC(=O)c1ccco1	-7	0	-12	2	5	-12	i	-5
CC1(C)NC(=O)N(CC(O)CN(c2cccc([N+](=O)[O-])c2)S(=O)(=O)c2ccccc2)C1=O (stereo unspecified)	-5	13	-9	-5	-1	-1	i	-19
Cc1ccc([C@H]2C[C@H](O)[C@@H](n3cc(COC(=O)c4ccccc4)nn3)CN2CC2CCCCC2)cc1	.	.	.	-2	-5	-12	.	-6
CCOc1ccccc1NC(=O)c1nc(-c2ccccc2)oc1C	3	-8	21	-6	-2	-8	i	.
Cc1nn(C)c(C(=O)N2CCOCC2)c1Cl	5	7	-8	4	5	20	i	-5
Cn1nc(C(C)(C)C)cc1C(=O)N1CCCCC1c1cc(C(=O)N2CCOCC2)no1 (stereo unspecified)	.	.	.	0	-1	15	.	2
O=C(c1cccc(C(F)(F)F)c1)C1CCCN(Cc2cccn2-c2ncccn2)C1 (stereo unspecified)	6	-8	-8	-2	-6	13	i	.
CCC(C)N1C(=O)CCC1C(=O)O (stereo unspecified)	-3	-7	0	6	-8	-27	i	-9
Cc1nn(C(=O)N2CCCCC2)c(C)c1CN1C(=O)c2ccccc2C1=O	1	-7	-9	2	-7	.	.	-18
CCOC(=O)N1CCN(C(=O)CCSc2ccccc2)CC1	-2	-1	-4	0	0	-55	i	-20
Cc1cccc(NC(=O)CSc2nnnn2-c2ccc3c(c2)OCCO3)n1	9	6	6	0	1	-5	i	.
O=C(OCC(=O)N1CCOCC1)c1ccc2[nH]c3c(c2c1)CCCC3	7	-1	2	7	0	-7	i	-24
O=C(CC(=O)Nc1ccccc1C(F)(F)F)Nc1ccccc1C(F)(F)F	-5	2	-2	-4	2	-5	i	-28
O=C(Nc1cccc([N+](=O)[O-])c1)C1CCN(C(=O)Cc2ccccc2)CC1	-6	-8	4	0	-3	6	i	1
CCOc1ccc(Cc2nnc(SCC(=O)Nc3ccc(OC)cc3)n(N)c2=O)cc1	.	.	.	0	0	-7	i	-4
CC(C)n1cc(-c2nc(C(=O)NN)cs2)c(=O)n(Cc2ccccc2)c1=O	-2	3	-7	1	0	-25	i	.
CCOc1ccc(C(C)=O)cc1COC(=O)c1cccnc1SC	1	1	1	-4	-2	-6	i	-3
C=CCn1c(SCC(=O)c2cc(C)n(C)c2C)nnc1-c1ccncc1	-3	83*	2	-6	-5	-1	i	-16	eIF4H inh retest=85*;PABP polyA inh retest=18
Cc1ccc(N2C(=O)c3ccccc3C2C(=O)c2ccc(C)c(C)c2O)cc1 (stereo unspecified)	2	-12	18	0	0	-41	.	.
Cc1sc2ncn(CC(=O)OCC(=O)NC(C)(C)C)c(=O)c2c1C	-6	-12	0	7	0	-32	i	-9
CN(C)c1nc(NN)nc(Nc2ccc(F)cc2)n1	-3	3	20	-5	0	-20	i	-3
O=C(OCC(=O)N1CCCc2ccccc21)c1cc(S(=O)(=O)N2CCOCC2)ccc1F	.	.	-7	-2	0	9	i	7
Cc1cc(N2C(=O)CCC2=O)ccc1NC(=O)c1cccs1	0	6	12	7	8	-25	.	-15
CC(=O)Nc1nnc(SCC(=O)c2ccc(F)cc2)s1	-9	2	1	-2	-3	-13	i	.
CCCn1nnc(NC(=O)C(C)Oc2ccc(Cl)cc2Cl)n1 (stereo unspecified)	0	2	10	0	-4	-96	i	-5
COc1cc(C(=S)N2CCOCC2)ccc1OS(=O)(=O)c1ccccc1[N+](=O)[O-]	-6	1	-5	3	-1	7	i	.

Two records drawn at random from the list so far:
SMILES	PABP polyA inh	eIF4H inh	CSC inhib	MT1-MMP act inh	MT1-MMP act inh RFP	HIV Env fusion	Rce1 inhib	Yeast UUG start	others
Cc1ccc(N2C(=O)c3ccccc3C2C(=O)c2ccc(C)c(C)c2O)cc1 (stereo unspecified)	2	-12	18	0	0	-41	.	.
O=C(OCC(=O)N1CCOCC1)c1ccc2[nH]c3c(c2c1)CCCC3	7	-1	2	7	0	-7	i	-24
